From PubChem BioAssay
H5N1 CPE = antiviral screen in MDCK cells, H5N1 avian flu | cytopathic effect, luminescence, 72 h; stronger effect = higher value; no value below 0 was filed and about half of the inactive calls have no number; reference of the scale not given here | inhibition, % at 50 µM | actives 0.07% (n = 96,000); in the data active = inhibition above about 25%
* = called active by the depositor; i = inactive. This is a subset; rates above refer to the full screens.

SMILES	H5N1 CPE
CCN1CCN(C(c2cccs2)C(C)NC(=O)c2c(F)cccc2F)CC1 (configuration not stated)	0.4
O=C(CSc1nnc(-c2ccccc2)n1Cc1ccccc1)NC1CC1	i
COc1ccc2c(c1)CC/C(=C\Nc1ccc3c(c1)OCO3)C2=O	i
CCn1c(SCc2cccnc2)nc2c1c(=O)n(C)c(=O)n2C	2.4
N#Cc1c2n(c3c(=O)n(CC(=O)c4ccc(Br)cc4)cnc13)CCCC2	i
Cn1nnnc1SCCNCc1ccncc1	i
O=C(O)CCCC(=O)Nc1ccccc1C(=O)N1CCCC1	i
Cc1[nH]nc(-c2ccc(OCc3cnn(-c4ccccc4)c3)cc2O)c1Oc1ccc(Cl)cc1	6.9
Cc1cc(Cl)c(S(=O)(=O)N2CC(C)OC(C)C2)cc1OCC(N)=O (configuration not stated)	0.7
COCCN1C(=O)c2ccccc2C(C(=O)NCCCN2CCCC2=O)C1c1c[nH]c2ccccc12 (configuration not stated)	i
CCCn1c(Nc2nc3ccccc3n2C)nc2ccccc21	i
Cc1ccsc1/C=N/NC(=O)CSCc1ccc(Cl)cc1	0.6
COc1ccc(-c2csc(-n3ncc(-c4cccs4)c3N)n2)cc1	i
O=C(CCC(=O)OCC(=O)c1cccc([N+](=O)[O-])c1)Nc1cccc(Cl)c1Cl	i
COC(=O)CSc1nc(NCC(C)C)nc(N2CCOCC2)n1	1.8
Cc1ccc(-c2csc(N(CCCN3CCOCC3)C(=O)c3ccco3)n2)cc1	0.3
Cc1cc(C)n(C(=O)CCCC(=O)n2nc(C)cc2C)n1	i
COC(=O)c1ccc(NC(=O)CN2CCOCC2)cc1	0.8
Cc1ccsc1C1Nc2ccc3ncccc3c2C2=C1C(=O)CCC2 (configuration not stated)	2.0
COCCOC(=O)c1c(C)n(C)c2ccc(OC(=O)N(C)C)cc12	0.3
Cc1ccc(NCc2nnc(SCC(=O)N3CCCc4ccccc43)o2)c(C)c1	0.2
O=c1[nH]c2cc3c(cc2cc1CN(CC1CCCO1)S(=O)(=O)c1ccccc1)OCCO3 (configuration not stated)	i
CCOC(=O)C1C(=O)NC(N2CCCCC2)=NC1c1ccccc1 (configuration not stated)	0.8
C(=N\Nc1nc(-c2ccccc2)cs1)/c1cccnc1	0.9
CCOc1ccc(NC(=O)c2ccccc2OC)cc1	i
Cc1ccc(NC(=O)C2CCN(S(=O)(=O)c3c(C)n[nH]c3C)CC2)nc1	i
CC1CC(C(F)(F)F)n2ncnc2N1 (configuration not stated)	i
Cc1cc(N2CCOCC2)n2nc(C)c(-c3ccccc3)c2n1	1.2
COc1cccc(OC)c1NC(=O)C1CCCN1C(=O)NCc1ccccc1 (configuration not stated)	i
CC1CCC(=C(C#N)C(=O)Nc2cccc(Cl)c2)CC1 (configuration not stated)	i
C=CCNS(=O)(=O)CC12CCC(CC1=O)C2(C)C (configuration not stated)	i
CN1CCN(c2ccc(Cl)cc2NC(=O)C2COc3ccccc3O2)CC1 (configuration not stated)	i
Cc1noc(C)c1C(=O)NCCc1ccccc1	i
Cc1ccc(S(=O)(=O)CC2CSc3nc(N)cc(=O)n32)cc1 (configuration not stated)	0.7
CCc1ccc2c(c1)cc(CN(C(=S)Nc1ccccc1)C1CC1)c1nnnn12	i
COc1ccc(-c2oc3ncnc(NCCN4CCOCC4)c3c2-c2ccc(OC)cc2)cc1	i
O=C(CN1C(=O)CSC1=O)Nc1ccccc1F	i
CCN(CC)c1ncnc2ccc(Br)cc12	0.2
CC(C)(C)c1cc(CN2CCN(CCC#N)CC2)cc(C(C)(C)C)c1O	i
COc1ccc(Cl)c(NC(=O)NCCN2CCN(c3ccccc3)CC2)c1	i
COc1ccc(C(=O)CN2C(=O)c3ccccc3C2=O)c(OC)c1C	0.2
CCSC(=Nc1ccccc1)C1=C(O)COC1=O	0.5
CCOC(=O)N1CCN(C(=O)CSCc2nc(-c3ccccc3C)oc2C)CC1	0.6
COc1ccccc1N1CCN(C(=O)C(Sc2ccccc2)c2ccccc2)CC1 (configuration not stated)	0.5
CC1CCCN(C(C(=O)Nc2ccc3c(c2)OCCO3)c2ccccc2)C1 (configuration not stated)	0.3
COc1ccc(-c2ccc(-c3nnn(CC(=O)N4CCOCC4)n3)cc2)cc1	0.1
Cc1ccccc1C(=O)Nc1ccccn1	1.5
O=C(c1cccn2c(=O)c3ccccc3nc12)N1CCC2(CC1)OCCO2	0.8

Entries listed so far that have bromine:
SMILES	H5N1 CPE
N#Cc1c2n(c3c(=O)n(CC(=O)c4ccc(Br)cc4)cnc13)CCCC2	i
CCN(CC)c1ncnc2ccc(Br)cc12	0.2

Going on with the list:
SMILES	H5N1 CPE
Cc1nn(-c2ccccn2)c2nc(-c3cccs3)cc(C(=O)N3CCOCC3)c12	0.7
CCn1c(SCC(=O)N2CCOCC2)nc2sc3c(c2c1=O)CCCC3	1.2
Cc1ccc(N2CCN(CC3CC=CCC3)CC2)cc1 (configuration not stated)	i
c1ccc(CCSc2nccn2-c2ccccc2)cc1	i
S=C(Nc1ccccc1)Nc1nc2ccccc2n1CCOc1ccccc1	i
O=C(CCCN1C(=O)c2ccccc2C1=O)Nc1ccc(S(=O)(=O)N2CCCCC2)cc1	1.0
COc1ccc(-n2c(-c3ccc(F)cc3)cnc2SCC(=O)NCc2ccco2)cc1	0.4
CC(=O)c1ccc(OCCN2CCOCC2)cc1	0.3
CCOC(=O)c1cnc2ccc(C)cc2c1Nc1ccc(N2CCOCC2)cc1	i
Cc1nc2ccc(-c3ccccc3)cc2o1	i
CCOc1ccccc1N(CC(=O)NC1CCCCC1)C(=O)CCCC(=O)Nc1ccccn1	i
O=C(COc1ccccc1)N1CCN(C(=O)Cc2ccccc2)CC1	i
Brc1ccc(-c2csc(N3CCc4ccccc4C3)n2)cc1	i
O=C(Nc1cccc(-c2cn3ccccc3n2)c1)c1cnccn1	i
CC(=O)c1ccccc1NC(=O)C1C2CCC(O2)C1C(=O)O (configuration not stated)	i
Cn1c(=O)oc2cc(S(=O)(=O)NCCc3ccccc3)ccc21	i
O=C(Nc1ccc(NC(=O)C2CC2)nc1)c1cccnc1	i
CC(=O)Nc1ccc(OCC(O)CNC2CCCC2)cc1 (configuration not stated)	0.7
COc1ccc(-c2nnc(NC(=O)c3ccc(S(=O)(=O)N4CCCc5ccccc54)cc3)o2)cc1	0.6
O=C1C(NS(=O)(=O)c2cccs2)=C(N2CCN(c3cccc(C(F)(F)F)c3)CC2)C(=O)c2ccccc21	i
COc1cccc(C(=O)Nc2ccc(-c3nc4ccccc4o3)c(O)c2)c1	0.1
O=C(c1cc2ccccc2oc1=O)N(Cc1ccco1)CC1CCCO1 (configuration not stated)	i
CCNc1nc(Oc2ccc(Cl)cc2Cl)cc(C(F)(F)F)n1	0.2
COC(=O)C(NC(=O)c1ccccc1Cl)(Nc1ncc(S(=O)(=O)c2ccc([N+](=O)[O-])cc2)s1)C(F)(F)F (configuration not stated)	i
Cc1ccccc1C1=NC(c2ccc(F)cc2F)ON1 (configuration not stated)	0.4
C=CCNC(=O)COc1ccc(Br)cc1Cl	1.4
O=C(NCc1cccnc1)c1ccc(CS(=O)(=O)c2ccc(Br)cc2)o1	0.6
COc1ccc(-n2cnc3ccccc32)cc1	i
CC1CCN(c2ccc(NC(=S)NC(=O)c3ccco3)cc2)CC1	i
COc1ccc(OC)c(C(=O)COC(=O)C2CC3CCCC(C2)C3=O)c1 (configuration not stated)	0.8
COC(=O)c1ccccc1NC(=O)Cn1c(CCC(=O)O)ccc1-c1cccs1	0.4
COc1ccc(CCNC(=O)c2ccc(Cl)cc2Cl)cc1	i
Cn1c(=O)cc(OCCCC(=O)NC2CCCC2)c2ccccc21	2.2
O=C(CSCc1ccc(Cl)cc1)NCC1CCCO1 (configuration not stated)	i
Nc1ccc(-c2nnc(-c3ccc(-c4ccccc4)cc3)o2)cc1	i
CS/C(=C\[N+](=O)[O-])Nc1ccc(F)cc1	1.1

Quoted at random: 5 entries already listed.
SMILES	H5N1 CPE
COc1ccc(CCNC(=O)c2ccc(Cl)cc2Cl)cc1	i
COc1ccc(-n2cnc3ccccc32)cc1	i
Cn1c(=O)cc(OCCCC(=O)NC2CCCC2)c2ccccc21	2.2
Nc1ccc(-c2nnc(-c3ccc(-c4ccccc4)cc3)o2)cc1	i
CC1CCN(c2ccc(NC(=S)NC(=O)c3ccco3)cc2)CC1	i

Additional entries:
SMILES	H5N1 CPE
COc1ccc(NC(=O)C2CCN(C(=O)c3ccc(OC)cc3)CC2)cc1	i
Cc1nc(-n2[nH]c3c(c2=O)CCCC3)[nH]c(=O)c1Cc1ccccc1	8.4
CCOC(=O)c1[nH]c(C)c(/C(O)=C2\C(=O)C(=O)N(CCN(C)C)C2c2cccc(OC)c2OC)c1C (configuration not stated)	0.5
c1cncc(-c2nnc(C3CCCCC3)o2)c1	i
Cc1nc(CSc2nnc3scc(-c4ccc(Cl)cc4)n23)cs1	5.2
O=C(CCN1c2ccccc2Sc2ccccc21)OCc1nnc(-c2ccccc2)o1	0.4
CC1CC(C)CN(C2CCN(Cc3cccnc3)CC2)C1 (configuration not stated)	0.2
O=C(Cn1c(=O)n(CCCCC(=O)NC2CCCC2)c(=O)c2ccccc21)NCCC1=CCCCC1	i
CCC(CC)c1nnc(NC(=O)c2c(C)nn(Cc3ccccc3Cl)c2C)s1	i
Cc1cc(C)cc(CC2CC(=O)N(c3ccc4c(c3)OCCO4)C2=O)c1 (configuration not stated)	i
CC1CCCCN1c1cc(C#N)c(C#N)cc1[N+](=O)[O-] (configuration not stated)	0.4
Cc1cc(C)c2c(=O)n(CC(=O)NCCCN3CCOCC3)sc2n1	0.8
O=C(Nc1cccc(Cl)c1)OCc1cnc(Cl)s1	i
CC1(C)Cc2c(c(N3CCOCC3)nc3sc4c(=O)[nH]cnc4c23)CS1	2.9
CCn1cc(C(=O)NCCN(C)CCc2ccccc2)c(=O)c2cc(S(=O)(=O)N(C)C)ccc21	2.5
CCC(=O)Nc1ccc(NC(=O)C23CC4CC(CC(C4)C2)C3)cn1	0.6
O=S(=O)(c1ccccc1)c1nc(-c2ccccc2)oc1NCc1cccnc1	i
FC(F)(F)c1nc2ccccc2n2c(-c3ccc(Cl)cc3)nnc12	0.9
Clc1ccccc1-c1nnc2sc(-c3ccco3)nn12	0.9
CC(C)(Oc1ccc(Cl)cc1)C(=O)NCc1ccco1	i
CCN(CC)CC(O)Cn1c2ccccc2c2ccccc21 (configuration not stated)	i
O=c1o[nH]c(-c2ccccc2)c1C1=NCCCCC1	i
COCc1cc(C)nc2sc3c(=O)n(Cc4ccco4)nnc3c12	0.4
CCOC(=O)C1=C(C)Nc2nc(SC)nn2C1c1ccc(C(=O)OC)cc1 (configuration not stated)	0.2

Compounds from the list above that have a cyano group:
SMILES	H5N1 CPE
N#Cc1c2n(c3c(=O)n(CC(=O)c4ccc(Br)cc4)cnc13)CCCC2	i
CC1CCC(=C(C#N)C(=O)Nc2cccc(Cl)c2)CC1 (configuration not stated)	i
CC(C)(C)c1cc(CN2CCN(CCC#N)CC2)cc(C(C)(C)C)c1O	i
CC1CCCCN1c1cc(C#N)c(C#N)cc1[N+](=O)[O-] (configuration not stated)	0.4

Quoted from above (4 entries):
SMILES	H5N1 CPE
CCN(CC)CC(O)Cn1c2ccccc2c2ccccc21 (configuration not stated)	i
O=c1o[nH]c(-c2ccccc2)c1C1=NCCCCC1	i
COCc1cc(C)nc2sc3c(=O)n(Cc4ccco4)nnc3c12	0.4
CCOC(=O)C1=C(C)Nc2nc(SC)nn2C1c1ccc(C(=O)OC)cc1 (configuration not stated)	0.2

(list continues)
SMILES	H5N1 CPE
CCCOC(=O)c1ccc(NC(=O)C2C3C=CC(O3)C2C(=O)O)cc1 (configuration not stated)	i
CC1CN(c2cc(=O)n(Cc3ccc(F)cc3)c(=O)[nH]2)CC(C)O1 (configuration not stated)	0.1
Cc1cc(NC(=O)c2c(Cl)cnn2C)no1	0.5
CCn1cc(C(=O)NC2CCCCC2)c(=O)c2ccc(C)nc21	1.2
CCC(C)Sc1nc(O)c(Cc2ccccc2)c(=O)[nH]1 (configuration not stated)	0.4
O=C(CC(c1ccccc1)c1cc(Br)ccc1O)NCCN1CCOCC1 (configuration not stated)	i
CCN(CC)c1ccc(C2C3CCCCC3(O)CCN2CC(=O)Nc2ccccc2)cc1 (configuration not stated)	0.6
NCC(CC(=O)O)C1CCCCC1 (configuration not stated)	0.7
N#Cc1cc2c(nc1SCC(=O)N1CCCCC1)CCCC2	0.9
CC1C/C(=N/O)C(C)CN1 (configuration not stated)	0.3
CC1Cc2nc(SCC(=O)Nc3ccc4c(c3)OCCO4)n(C)c(=O)c2S1 (configuration not stated)	0.9
COc1ccc(-c2[nH]c(-c3ccc4c(c3)OCO4)nc2-c2ccccc2)cc1	i
O=C(NC(c1ccccc1)c1ccccc1)C1CCCN(S(=O)(=O)c2cnc[nH]2)C1 (configuration not stated)	i
O=C(NC1CCCCC1)C1CC(O)CN1C(=O)OCc1ccccc1 (configuration not stated)	i
Cc1nc(CN2CCN(C(=O)c3ccc(C(C)(C)C)cc3)CC2)cs1	1.6
Cc1nc2nc[nH]n2c(=O)c1NC(=O)CC12CC3CC(CC(C3)C1)C2	0.2
CC1CN(c2cc(=O)n(-c3ccccc3)c(=O)[nH]2)CC(C)O1 (configuration not stated)	0.6
CN(C)c1cc[n+](Cc2ccccc2)cc1	7.0
Cc1nc2nc3c(c(=O)n2[nH]1)CCC3	0.5
COc1ccc(Nc2nc(C(=O)NCCCN3CCOCC3)cs2)cc1	0.9
CCc1nnc(NC(=O)C2CCN(C(=O)NC3CCCCC3)CC2)s1	i
COc1cc(/C=C/C(=O)c2c(O)ccc3c(C)cc(=O)oc23)ccc1O	8.1
O=C(c1ccco1)N1CCN(C(c2ccc(F)cc2)c2nnnn2CC2CCCO2)CC1 (configuration not stated)	1.3
O=C(CCC(=O)N1CCN(S(=O)(=O)c2ccccc2)CC1)c1cccs1	1.4
Cc1ccccc1C1NC(=O)Cc2ccccc21 (configuration not stated)	0.6
